Vaccinia mCherry: inhibitors of vaccinia virus infection (mCherry reporter signal); Vaccinia virus mCherry reporter infection, fluorescence; about a quarter of the inactives have no number; Potency, µM (doses to about 36.5 µM), inactives show at the top dose activity change, negative = inhibition, usual class: inhibitors; hit rate 0.63% among 310,000; AID 720579; active = well fitted inhibition curve with a large enough effect; inconclusive = small, poorly fitted or top-dose-only effect; inactive = no such curve, though single readings can be large or run the other way; tested in A549 cells; also: nearly all actives have a fitted effect of over 35% in size; inactives centre near -10
Vaccinia Venus: inhibitors of vaccinia virus (Venus reporter); Vaccinia virus Venus reporter expression, fluorescence; hit rate 0.46% among 330,000; Potency, µM (series often up to 36.5 µM), for inactives: at the top dose activity change, negative = inhibition, hits mostly inhibitors; active means well fitted inhibition curve with a large enough effect; inconclusive means small, poorly fitted or top-dose-only effect; inactive means no such curve, though single readings can be large or run the other way; tested in A549 cells; also: nearly all actives have a fitted effect of over 30% in size; inactives centre near -10
Starred values were filed as active, the others as inactive; i = inactive; u = inconclusive; x = no result given; & = joins results of further samples; [ ] = another dose, or the depositor's remark. % is scaled to controls: 0 for no effect and ±100 for the full control effect; potency is read from the fitted curve at half-maximal effect.

[1] CC1CN(C(=S)SCC(=O)c2ccc(Cl)cc2)CC(C)O1 (stereo not drawn)
[2] CC(=O)c1ccc(-n2nncc2-c2ccc([N+](=O)[O-])cc2)cc1
[3] Cc1ccccc1-n1nnnc1SCC(=O)NCC1CCCO1 (stereo not drawn)
[4] C=CCC[C@H](Cc1ccc(F)cc1)C(=O)OC[C@@H](C)NC(=O)[C@H](CC=C)CC(=O)NCCO
[5] CCOc1cc(C=NN=C2c3ccccc3-c3ccccc32)ccc1O
[6] CC1(C(=O)NS(=O)(=O)c2ccc(Br)cc2)CCN1C(=O)CC1CCCCC1 (stereo not drawn)
compound no.	1	2	3	4	5	6
Vaccinia mCherry	-17%	-6%	i	-10%	0%	-2%
Vaccinia Venus	-8%	-13%	8%	-18%	-6%	-10%

[7] COC(=O)C1C(=O)NCC1c1ccccc1 (stereo not drawn)
[8] CCN(CC)c1nc2ccccc2nc1C(=O)Nc1ccc(C(C)=O)cc1
[9] CN1C(=O)C2(c3ccccc31)N(c1ccccc1)C(=O)CS2(=O)=O (stereo not drawn)
[10] CCOC(=O)Nc1ccc(S(=O)(=O)Nn2cnnc2)cc1
[11] O=c1cc(-c2ccccc2)n2c(SCc3ccc(Cl)cc3)nnc2[nH]1
[12] O=S(=O)(c1ccc(F)cc1)N1CCN=C1SCc1cccnc1
compound no.	7	8	9	10	11	12
Vaccinia mCherry	i	-5%	1%	-14%	i	-9%
Vaccinia Venus	-10%	-6%	0%	-8%	-10%	-16%

[13] COC1C(O)C(CO)OC1n1cnc2c(=O)[nH]c(N)nc21 (stereo not drawn)
[14] CN1CCN(c2ccc(NC(=O)c3ccc4c(c3)OCCO4)cc2)CC1
[15] COc1c(Cl)cc(Cl)cc1/C=C/C(=O)c1ccc(NC(=O)c2cccs2)cc1
[16] CC(=O)Nc1ccc(NS(=O)(=O)c2ccc(C)cc2)c([N+](=O)[O-])c1
[17] C=CCc1cc(Cl)ccc1OCCN1CC(C)OC(C)C1 (stereo not drawn)
[18] CCc1ccc(CNC(=O)C2CC(=O)N(CCc3ccc(C)cc3)C2)cc1 (stereo not drawn)
compound no.	13	14	15	16	17	18
Vaccinia mCherry	-12%	i	11µM*	-7%	-8%	-18%
Vaccinia Venus	-16%	4%	10µM*	-6%	-4%	-9%

[19] COc1ccc(CN2C(=O)CN(S(C)(=O)=O)CC2(C)C(=O)NC(C)C)cc1 (stereo not drawn)
[20] CCOc1cc(C(=S)N2CCCCC2)ccc1OCC(=O)NCc1ccccc1
[21] CC1CC(C)CN(C(=O)Cn2cc(C=O)c3ccccc32)C1 (stereo not drawn)
[22] COc1ccc(C)cc1N(C(=O)c1ccc(F)cc1)c1nc2ccccc2s1
[23] COC(=O)c1ccccc1NC(=O)N(Cc1ccc(C)cc1)Cc1cccn1-c1nnc(N2CCCC2=O)s1
[24] O=C1CSC(c2nn(-c3ccccc3)cc2-c2cc3ccccc3oc2=O)N1Cc1ccco1 (stereo not drawn)
compound no.	19	20	21	22	23	24
Vaccinia mCherry	-18%	i	i	-14%	-15%	-12%
Vaccinia Venus	15%	-15%	-7%	-13%	-9%	-24%

[25] CN[C@H]1C[C@H]2c3cc(Oc4ccccc4C)ccc3CCN2C(=O)[C@H]1[C@H](C)O
[26] O=C(Nc1ccccc1Br)C(Cc1ccccc1)NS(=O)(=O)c1cccc2nsnc12 (stereo not drawn)
[27] O=C(Nc1ccc(Cl)c([N+](=O)[O-])c1)ONC1=NCCCCC1
[28] CC(C)c1c(C(=O)N/N=C/c2ccc(OCc3ccc(F)cc3)cc2)nnn1-c1nonc1N
[29] Cn1c(CCc2ccccc2)nnc1SCC(N)=O
[30] COc1cccc(-n2c(-c3ccco3)nc3c(cnn3-c3ccccc3C)c2=O)c1
compound no.	25	26	27	28	29	30
Vaccinia mCherry	i	-14%	1%	i[7.34 µM]	i	-14%
Vaccinia Venus	0%	-8%	-5%	-17%[7.34 µM]	-11%	-3%

[31] O=C(NCc1ccccc1)C1Cc2c(-c3ccc4c(c3)OCO4)ccnc2O1 (stereo not drawn)
[32] CC(C)S(=O)(=O)c1csc(NC(=O)Nc2cc(Cl)ccc2Cl)c1Cl
[33] COc1ccc(CCNC(=O)c2ccc3c(c2)N(Cc2ccc(F)cc2)CCS3)cc1OC
[34] CC(=O)Nc1ccc(NC(=O)CCC(=O)OCC(=O)c2ccc(C)c([N+](=O)[O-])c2)cc1
[35] Cc1ccc(OCC(=O)O/N=C(\N)Cc2cccs2)cc1C
[36] CC(C)(C)c1ccc(NC(=S)NCCc2ccccn2)cc1
compound no.	31	32	33	34	35	36
Vaccinia mCherry	-8%	-4%	i	-4%	-4%	-10%
Vaccinia Venus	u	-19%	-13%&-13%	-5%	0%	u

[37] COc1ccc2c(C(=O)NCc3ccc4c(c3)OCO4)c(-c3ccc(S(C)(=O)=O)cc3)sc2c1
[38] Cc1cccc(NC(=O)CSc2nnc(-c3cc(C)[nH]n3)n2N)c1
[39] O=C(Nc1ccccc1)OC(CN1CCCCC1)C(F)(F)F (stereo not drawn)
[40] CC(C)c1ccc(Nc2cc(C(=O)NCCc3ccccc3)c3ccccc3n2)cc1
[41] CC(C)(O)/C=C/C[C@](C)(O)C1CC[C@]2(C)C1[C@H](O[C@H]1O[C@@H](CO)[C@H](O)[C@@H](O)[C@@H]1O)CC1[C@@]3(C)CC[C@H](O)C(C)(C)C3[C@@H](O)C[C@]12C (stereo partly drawn)
[42] CC(C)OP(=O)(OC(C)C)C(O)c1ccc(N(C)C)cc1 (stereo not drawn)
compound no.	37	38	39	40	41	42
Vaccinia mCherry	i	i	x	-1%	-10%	-8%
Vaccinia Venus	u	-8%	-21%	-7%	-5%	-8%

Among those listed so far, 3 contain an NH in an aromatic ring.
[11] O=c1cc(-c2ccccc2)n2c(SCc3ccc(Cl)cc3)nnc2[nH]1
[13] COC1C(O)C(CO)OC1n1cnc2c(=O)[nH]c(N)nc21 (stereo not drawn)
[38] Cc1cccc(NC(=O)CSc2nnc(-c3cc(C)[nH]n3)n2N)c1
compound no.	11	13	38
Vaccinia mCherry	i	-12%	i
Vaccinia Venus	-10%	-16%	-8%

The list goes on:
[43] C=CCn1c(SCC(=O)NC2CCCC2)nc2ccccc21
[44] O=C(NCCCCc1ccccc1)C1CC(c2cccc([N+](=O)[O-])c2)=NO1 (stereo not drawn)
[45] CCNc1nc2c(c(=O)n(C)c(=O)n2C)n1Cc1ccc(Cl)cc1
[46] CNS(=O)(=O)c1cc(NC(=O)CCCNC(=O)c2ccc(Cl)cc2)ccc1C
[47] O=C(Nc1cc(C(F)(F)F)ccc1Cl)c1cc2nc3c(c(C(F)(F)F)n2n1)CCCC3
[48] Cc1cc(C)nc(N(C#N)Cc2ccc(Br)cc2)n1
compound no.	43	44	45	46	47	48
Vaccinia mCherry	-25%	-7%	i	-13%	-15%	-13%
Vaccinia Venus	-7%	-7%	-17%	1%	-4%	-3%

[49] COc1ccc(S(=O)(=O)N2CCC(C(=O)NCc3ccco3)CC2)cc1C
[50] O=C(Cn1ncc2c3ccccc3n(Cc3cccc(Cl)c3)c2c1=O)NCCC1=CCCCC1
[51] O=C(Cn1cnc2ccccc2c1=O)N/N=C/c1ccc(Br)cc1
[52] CCn1c(=O)cc(OCC(=O)N(C)c2cc(Cl)ccc2C)c2ccccc21
[53] COc1ccc(Oc2cc(NN3CCCCC3)c([N+](=O)[O-])cc2[N+](=O)[O-])cc1OC
[54] Cc1ccc(/C=N/NC(=O)c2cc(C3CC3)nc3ccccc23)o1
compound no.	49	50	51	52	53	54
Vaccinia mCherry	-5%	-2%	i	-8%	u	-29%
Vaccinia Venus	-16%	-8%	-6%	-5%	u	-21%

4 records picked at random from the list so far:
[49] COc1ccc(S(=O)(=O)N2CCC(C(=O)NCc3ccco3)CC2)cc1C
[50] O=C(Cn1ncc2c3ccccc3n(Cc3cccc(Cl)c3)c2c1=O)NCCC1=CCCCC1
[53] COc1ccc(Oc2cc(NN3CCCCC3)c([N+](=O)[O-])cc2[N+](=O)[O-])cc1OC
[51] O=C(Cn1cnc2ccccc2c1=O)N/N=C/c1ccc(Br)cc1
compound no.	49	50	53	51
Vaccinia mCherry	-5%	-2%	u	i
Vaccinia Venus	-16%	-8%	u	-6%

(cont.)
[55] Cc1ccc(C(=O)Nc2nccs2)cc1S(=O)(=O)N1CCCCC1
[56] CCC(C(=O)NCCc1cc(OC)ccc1OC)n1nc(C)c2c(C)n(-c3ccccc3)nc2c1=O (stereo not drawn)
[57] Cc1ccc(NC(=S)N2CCSC2c2cccs2)cc1 (stereo not drawn)
[58] CC(C)(C)c1ccc(/C=C/C(=O)Nc2nncs2)cc1
[59] O=C(/C=C/c1cccnc1)c1ccc(F)c(F)c1
[60] CN1C(=O)/C(=C/c2ccccc2OCc2ccc(F)cc2)N(C)C1=S
compound no.	55	56	57	58	59	60
Vaccinia mCherry	u	-9%	-16%	-17%	-13%	-7%
Vaccinia Venus	-21%	-11%	-11%	-11%	-15%	0%

Reformatted with two lines to a compound: two of the compounds above
Results follow in this order: Vaccinia mCherry, Vaccinia Venus
57) Cc1ccc(NC(=S)N2CCSC2c2cccs2)cc1 (stereo not drawn)
→ -16%, -11%
58) CC(C)(C)c1ccc(/C=C/C(=O)Nc2nncs2)cc1
→ -17%, -11%

(listing goes on)
[61] CC1/C(=N/O)CC(c2ccccc2)N(C)C1c1ccccc1 (stereo not drawn)
[62] O=C(NCC1CCC2(CCN(Cc3cnn(-c4ccc(F)cc4)c3)CC2)O1)c1ccccc1 (stereo not drawn)
[63] COC(=O)c1ccc(CN2CCN(C3CCCCC3)C(CCO)C2)cc1 (stereo not drawn)
[64] Cc1c(CN2CCCCC2C)c(=O)n(-c2ccccc2)n1C (stereo not drawn)
[65] CCn1c(SCC(=O)N(C)CC(=O)Nc2ccc(OC)cc2)nnc1-c1ccco1
[66] Cc1ccc(CNC(=O)c2oc3ccc(S(=O)(=O)N4CCC5(CC4)OCCO5)cc3c2C)cc1
compound no.	61	62	63	64	65	66
Vaccinia mCherry	-13%	i	u	-1%	-16%	0%
Vaccinia Venus	-9%	-13%	19%	-4%	-3%	-18%

[67] N#C/C(=C(/O)COc1ccc(Cl)cc1)c1nc2ccccc2s1
[68] CCOC(=O)N1CCC(N(CCCOC)C(=O)Nc2ccc(CC)cc2)CC1
[69] CCCCCc1c(-c2ccc(OC)cc2)ncn1CCc1ccccc1OC
[70] Cc1cccc(NC(=S)N/C(=N/S(=O)(=O)c2ccccc2)c2ccccc2)c1
[71] CO[C@H]1[C@H](NC(=O)c2ccsc2)c2ccccc2C12CCN(Cc1cc3ccccc3o1)CC2
[72] Cc1ccccc1-c1csc(C(C)(O)c2ccc(F)c(F)c2)n1 (stereo not drawn)
compound no.	67	68	69	70	71	72
Vaccinia mCherry	5%	u	u	-18%&-16%	-21%	-20%
Vaccinia Venus	-16%	-19%	u	-10%&-9%	-14%	3%

Taken from above.
#30 | Vaccinia Venus = -3%
#50 | Vaccinia mCherry = -2%

Remaining list, next part:
[73] Cc1c(Cl)ccc2c(C(=O)NCCCn3nccc3C)cc(-c3ccccn3)nc12
[74] Cc1ccc(CNC(=O)C2CCC(=O)N(C3CC3)C2)cc1 (stereo not drawn)
[75] CCCN(CCC)CCNC(=O)c1cc2c(-c3ccccc3F)nn(C)c2s1
[76] Cc1ccccc1Nc1nc(N)nc(CCl)n1
[77] O=C(CCN1CCOCC1)NNC(=O)c1ccc(Cl)c([N+](=O)[O-])c1
[78] Cc1ccc(NC(=S)N=Nc2c(O)[nH]c3ccccc23)cc1
compound no.	73	74	75	76	77	78
Vaccinia mCherry	-27%	-15%	-11%&-6%	u	-18%	-29%
Vaccinia Venus	-25%	-5%	-25%&-3%	u	-10%	-16%

[79] COc1ccc(S(=O)(=O)Nc2ccccc2)cc1
[80] Cc1cc(OCC(=O)NCC2(N(C)C)CCCCC2)cc(C)c1Cl
[81] Cc1cc(C(=O)N/N=C/c2sccc2C)no1
[82] CCc1nn(C)c2c(=O)c(=O)c2n(C)[nH]1
[83] CCNC(=O)c1sc2ncnc(NCCCN3CCOCC3)c2c1C
[84] CC(NC(=O)c1cccs1)C(c1cccs1)N1CCOCC1 (stereo not drawn)
compound no.	79	80	81	82	83	84
Vaccinia mCherry	-14%	u	-14%	-2%	0%	-9%
Vaccinia Venus	-17%	u	-4%	4%	14%	-8%

Compound activity deposited in PubChem BioAssay by National Center for Advancing Translational Sciences (NCATS).
